Sa helicase inh – S. aureus DNA helicase inhibition. purified S. aureus helicase, fluorescence unwinding assay; about half of the hits fall short of the stated cut. inhibition, %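 (tested at about 80 µM)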. hit rate 0.05% among 120,000. AID 485395;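 active means both duplicates at 50% or more, or one of them with a favoured structure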;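 further: 0% = mean of negative control wells and 100% = mean of positive control wells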
MgrA-DNA mod – modulators of Staphylococcus aureus MgrA DNA binding; fluorescence polarization; inhibition, %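 (about 10 µg/mL by stock and volumes)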; hit rate 0.13% among 84,000; AID 602314;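 active means above 50% in either of two replicates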;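 further: 0% = protein plus DNA without compound and 100% = DNA alone without protein; higher means less MgrA bound to DNA so lower polarization; one replicate is shown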
* marks the source's active call; other numbers are inactive results; / = not tested or not shown; & = joins results of further samples. Some of the compounds tested; rates above refer to the full screens.

SMILES	Sa helicase inh	MgrA-DNA mod
FC(F)(F)c1cc(N2CCCC2)c2cccc(Cl)c2n1	/	-0.4
CCOC(=O)CC(N)c1ccc(OCC)c(OC)c1 (stereo unspecified)	-1	/
ON/C=N/c1nc2c(s1)CCc1ccccc1-2	/	2.6
Cc1ccc(C(=O)N2CCN(Cc3ccccc3)CC2)cc1	/	-2.2
O=C(c1ccc(Nc2nc3ccccc3n3nnnc23)cc1)N1CCN(c2ccccc2)CC1	-43	/
ONC=Nc1cc(Cl)c(-n2cccc2)cc1Cl	/	0.3
CCc1ccc(C(=O)CSc2nc3ccccc3c(=O)n2C)cc1	19	/
COC(=O)NC1CS(=O)(=O)CC1NC(=O)OC (stereo unspecified)	19	-0.5
O=C(NCc1ccco1)c1c(NC(=O)c2nn(-c3ccccc3)ccc2=O)sc2c1CCC2	-14	/
COc1ccc(CN(C)C(=O)CSc2nnc3sc4ccccc4n23)cc1	-9	/
CCOC(=O)C1=C(O)C(=O)N(C2CCCCC2)C1	/	0.3
CN(C)c1ccc(C(O)c2nc3ccccc3n2C)cc1 (stereo unspecified)	-14	0.4
Cc1c(C(=O)NCC2CCCO2)oc2ccc(S(=O)(=O)N3CC(C)CC(C)C3)cc12 (stereo unspecified)	8	/
O=C(/C=C/c1ccc2c(c1)OCO2)Nc1ccc2nc3n(c(=O)c2c1)CCCCC3	8	/
O=S(=O)(NCC1CCCO1)c1ccc(N2CCOCC2)nc1 (stereo unspecified)	25	/
Cc1c(C#N)c(N)c(C(=O)c2ccc(Br)cc2)n1-c1ccc(Br)cc1	-5	/
O=C(/C=C/c1ccco1)OC1CCCCC1=O (stereo unspecified)	0	/
CCC(C)c1ccc(NC(=O)CSc2ccccn2)cc1 (stereo unspecified)	/	-2.4
CC(=O)O/N=C1/CC(C)(C)Cc2onc(C)c21	4	-0.1
Cc1ccc(Sc2ncccc2-c2nnc(C3CC3)o2)cc1	/	-0.1
Brc1cccc(-c2nnc3sc(CN4CCc5ccccc54)cn23)c1	1	-2.5
N/C(=N\O)c1ccc(OCc2ccc(Cl)cc2Cl)cc1	/	2.6
OC1CSCc2nc3ccccc3n2C1 (stereo unspecified)	9	-2.8
Cc1ccc(OCC(=O)OC2CCS(=O)(=O)C2)cc1 (stereo unspecified)	-10	/
O=c1[nH]nc(SCc2csc(-c3ccccc3)n2)c(=O)[nH]1	1	/
O=C1NCCC2C1N=C(N1CCCCC1)N2C1OC(CO)C(O)C1O (stereo unspecified)	-12	0.7
CC(C)CCN1Cc2ccccc2C1	20	/
N#CC1C(c2cccs2)C(C(N)=O)C(=O)NC1(O)c1ccccc1 (stereo unspecified)	9	7.7
Cc1cc(C(=O)N/N=C/c2c(C)nc3sccn23)c(C)o1	7	/
CC(C)Cn1c2ccc(Cl)cc2c2nc3ccccc3nc21	36	/
Cc1nn(-c2ccccn2)c2c1-c1nc(N)ncc1CC2	3	/
Cc1cc(C)n(C(=O)c2ccoc2C)n1	-1	0.4
Oc1ccc(Cn2cnc3ccccc32)cc1	-3	-1.5
O=C(NCc1ccco1)c1ccccc1C(=O)c1ncc[nH]1	3	-1.9
CCOC(=O)CSc1nc(-c2ccccc2)cn1-c1ccccc1	/	3.6
Cc1ccc2nc(Nc3cccc(C(F)(F)F)c3)c(C#N)cc2c1	5	0.9
COc1ccc(NC(=O)N(Cc2ccc(C)cc2)Cc2ccccn2)c(OC)c1	12	0.8
CCN=c1scc(C)n1/N=C/c1cn(-c2ccccc2)nc1-c1ccc(OC)c(OC)c1	-4	/
O=C(c1ccc(Cl)cc1)N1CCS(=NS(=O)(=O)c2ccc(Cl)cc2)CC1	3	/
O=C(NCCN1CCN(Cc2ccccc2C(F)(F)F)CC1)Nc1ccccc1	11	-4.8
Fc1ccccc1OCc1nnc2n1CCCCC2	10	1.6
Cc1ccc(C)c(NC(=O)CSc2ncnc3c2oc2ccccc23)c1	5	/
COc1ccc2c(c1)C=C(C#N)CO2	/	-1.2
CCN1CCCC1CNC(=O)c1ccc(-n2c(-c3ccccc3)cc3c2CCCC3)cc1 (stereo unspecified)	-7	0.4
COc1ccc(C(C)=O)cc1CSc1nc2ccc(C(F)(F)F)cc2[nH]1	/	-2.6
Cc1cc(C)c2c(c1)/C(=N/N)CCC2	-4	/
C=C(C)CSc1nnc2c(n1)[nH]c1ccccc12	-20	/
CCOC(=O)c1oc2ccc3c(c2c1C)C(=O)CC(C)(C)O3	-7	0.7
Cc1cc(=O)oc2c(C)c(OCC(=O)OC(C)C)ccc12	2	-0.5
Oc1ccc(CN2CCCCC2)nc1-c1ccccc1	7	-1.8
COc1ccc(C(=O)Nc2nccs2)c(F)c1	-6	/
O=C(Nc1ccccc1)c1ccc(NC2=NC3CS(=O)(=O)CC3S2)cc1 (stereo unspecified)	-3	1.1
N#C/C(=C(/O)CN1CCOCC1)c1nc2ccccc2s1	2	-1.6
CC(C)(C)NC(=O)CCc1nc(-c2ccccc2)no1	17	/
COc1ccc(OCc2nnc(SCC(=O)N3C(C)CCCC3C)o2)cc1 (stereo unspecified)	15	-0.4
NS(=O)(=O)c1ccc2nc(NC(=O)c3ccc(Br)cc3F)sc2c1	13	/
COc1ccc(C2=NN3C(C2)c2ccccc2OC3c2cccc([N+](=O)[O-])c2)cc1 (stereo unspecified)	/	1.8
O=C(COC(=O)c1cnccn1)c1ccc(Cl)cc1	5	-4.5
CN(CC(=O)Nc1ccccc1)CC(=O)Nc1ccccc1Cl	29	/
C=CCn1c(SCC(=O)NC(=O)Nc2ccccc2F)nc2ccccc21	-5	/
Continuation:
SMILES	Sa helicase inh	MgrA-DNA mod
COc1cccc(Cn2c(-c3cscn3)nc3ccccc32)c1	-14	/
CC1(C)CN(c2ccc(Cl)cc2C(=O)c2ccccc2)C1=O	/	1.9
CC12CC3(C)CC(C)(C1)CC(CO)(C2)C3	/	-2.5
C=CCn1c(NC(=O)c2ccc(C)cc2)c(C#N)sc1=N	15	/
CCOC(=O)c1cn(Cc2ccccc2)c2ccccc2c1=O	22	/
CCCCn1c(=O)oc2cc(Br)ccc21	4	3.4
CCc1ccc(C(=O)On2c(-c3ccccc3F)nc3ccccc3c2=O)cc1	/	-0.9
CCc1c(C)nc(SCC(=O)N2CC(C)OC(C)C2)[nH]c1=O (stereo unspecified)	2	/
CCOC(=O)C1=C(C)N=c2s/c(=C\c3ccc(OC)c(OC)c3)c(=O)n2C1c1ccc(N(C)C)cc1 (stereo unspecified)	/	0.1
O=C(NCc1ccc(Cl)cc1)c1ccc(Br)o1	8	-1.9
C=C(C)C1CC=C(C)/C(=N\NC(=O)Nc2ccccc2)C1 (stereo unspecified)	-12	/
Nc1nnc(-c2cc3ccccc3oc2=O)s1	/	3.2
CC(C)c1nnc(SCC(=O)Nc2ccc(Cl)cc2)n1N	3	/
CC1CC(=O)N(c2ccc(OC(F)(F)F)cc2)C1=O (stereo unspecified)	/	-0.6
O=C(Cn1c(=O)sc2ccccc21)Nc1cccc(Cl)c1	3	-5.1
Cc1ccsc1CNC(=O)c1ccccc1	/	0.8
CN(Cc1ccccc1)C(=O)c1ccc(N2CCCC2=O)cc1	6	0.9
CCn1c(CNC(=O)c2ccc(OC)c(OC)c2)nc2ccccc21	-5	/
CCOC(=O)C1=C(c2ccccc2)OC(N)=C(C#N)C1C(C)C (stereo unspecified)	-22	/
O=C(Nc1nncs1)c1ccc(N2C(=O)C3C4C=CC(C4)C3C2=O)cc1 (stereo unspecified)	4	/
CC(C)OC(=O)c1cc(C(=O)O)c(C(=O)OC(C)C)cc1C(=O)O	0	-2.1
CCSc1nc2sc3c(c2c2n[nH]c(=S)n12)CCCC3	16	2.1
O=C(O)c1ccc(CSc2ccccn2)cc1	-5	-1.9
CCc1ccc(N(CC(=O)NCC2CCCO2)S(C)(=O)=O)cc1 (stereo unspecified)	16	-3.1
C=CCn1c(NCCO)nc2sc3c(c2c1=O)CCC3	10	/
Cc1onc(-c2ccccc2)c1-c1ccnc(N)n1	/	-1.3
Cc1ccc2cc(CCC(=O)O)c(=O)[nH]c2c1	8	2.2
COc1ccc(S(N)(=O)=O)cc1C(=O)OCC(=O)N1c2ccccc2NC(=O)C1(C)C	12	/
COc1ccc(OC)c(NC(=O)c2ccccc2)c1	8	4.0
COC(=O)c1c(C)[nH]c(C)c1/C=N/O	/	-3.1
Cc1coc2c(Cl)cc(Cl)cc2c1=O	8	/
Nc1cccc(CCc2nc3ccccc3[nH]2)c1	46	/
S=c1[nH]nc(Cc2ccccc2)n1Cc1ccccc1	8	0.2&-0.2
CC1CN(Cc2csc(Nc3ccccc3)n2)CC(C)O1 (stereo unspecified)	12	/
CCOC(=O)c1cc2cc(F)ccc2[nH]1	/	-0.9
COc1ccc(Cn2nnnc2C(c2cccs2)N2CCOCC2)cc1 (stereo unspecified)	0	-4.8
O=C(NCC1CCCO1)C1CCC(=O)N1Cc1ccc(F)cc1 (stereo unspecified)	16	/
O=C(O)C(Cc1c[nH]c2ccccc12)N1C(=O)C2C3C=CC(C3)C2C1=O (stereo unspecified)	20	/
Cc1ccc(NC(=O)CN(C)C(=O)CSc2nccn2C)cc1	-5	/
O=C(c1cccc(Cl)c1Cl)N1CCOCC1	13	1.2
Cc1nc(-c2ccccc2)sc1C(=O)Oc1ccccc1N1CCOCC1	/	-1.4
CCCN1CCN(C(=O)CC(NC(=O)c2ccccc2Cl)c2ccccc2)CC1 (stereo unspecified)	26	/
CC(C)Oc1ccc(C2C3=C(CC(C)(C)CC3=O)Nc3ccccc3N2C(=O)C(F)(F)F)cc1 (stereo unspecified)	/	3.1
CC(C)(C)C(=O)CC(O)(c1ccccc1)C(F)(F)F (stereo unspecified)	7	-5.1
CCSc1nc2ccccc2c(=O)n1Cc1ccco1	-15	/
CCOC(=O)c1cc(NS(=O)(=O)c2ccccc2)ccc1N1CCCCC1	31	/
CCOC(=O)c1c(C)n(-c2ccc(C)c(C)c2)c2ccc(OC(=O)c3ccccc3)cc12	/	5.6
N#Cc1ccc(C(=O)NC2CCS(=O)(=O)C2)cc1 (stereo unspecified)	3	-2.3
Cc1ccc(S(=O)(=O)N2CCN(Cc3cc(-c4ccccc4)ccc3O)CC2)cc1	-4	/
O=C(CCN1C(=O)C2C3C=CC(C3)C2C1=O)NCCc1ccccc1 (stereo unspecified)	-9	/
CCc1ccccc1NC(=O)CCn1c(=O)c2cccn2c2ccccc21	-2	-1.6
O=C(c1c[nH]c2ccccc2c1=O)N(c1ccccc1)c1ccccc1	1	-2.0
O=C(O)CCC(=O)n1ncc2ccccc21	1	8.8
CCc1ccccc1Nc1nc(N)nc(CNc2ccccc2)n1	-8	/
CCOC(=O)C1CCCN(Cc2cccc(C)c2)C1 (stereo unspecified)	11	-9.5
O=C(CSc1ccc(S(=O)(=O)N2CCCCC2)cn1)NCc1ccco1	-8	/
C=CCc1cccc(CNc2cnc3ccccc3c2)c1O	7	/
CCNc1nc(=S)nc(NCC)[nH]1	-17	/
Cc1noc(C)c1Cn1cnc2scc(-c3ccc(Br)cc3)c2c1=O	-4	/
COc1ccc(-c2ocnc2C(=O)O)cc1	/	-1.4
New compounds follow
SMILES	Sa helicase inh	MgrA-DNA mod
CCOC(=O)C1(C(=O)OCC)C(c2ccccc2)CC(=O)CC1c1ccccc1 (stereo unspecified)	-10	0.8
CSc1nc2nccc(NC(=O)c3cccc(C)c3)n2n1	/	-3.0
CC(=O)N(C)CCc1ccc(C)[n+]([O-])c1	7	-1.9
CCn1ncc(Br)c1C(=O)NC1CCCCC1	7	/
O=C(NCCc1ccccc1)c1cc(-c2ccccc2)c(N2CCOCC2)s1	21	4.2
CC1(C)CC(=O)C2=C(C1)NCN(Cc1ccccc1)C2	2	1.0
Cc1ccc(-n2ccnc(NCCc3ccc(S(N)(=O)=O)cc3)c2=O)cc1	-1	/
CCc1nnc2c3c(-c4ccccc4)csc3ncn12	-11	-7.0
Cc1nc(=S)[nH]c(C)c1CCC(=O)NCc1ccco1	-7	/
O=C1/C(=C/c2ccccc2)CC/C1=C\c1ccccc1	/	1.2
CC(C)(O)C#Cc1ccc(C(=O)N2CCCC2C(=O)O)s1 (stereo unspecified)	2	1.4
O=C(Nc1ccccc1)N1CCCCC1c1cccnc1 (stereo unspecified)	5	-0.5
CC1(C(=O)NC2CCCCCC2)Cc2ccccc2C(=O)N1Cc1ccco1 (stereo unspecified)	9	-0.8
Cc1cc(NC(=NC2CC2)c2ccccc2F)n(-c2ccccc2)n1	18	/
CC(C)(C)C(=O)Nc1sccc1C#N	7	/

As a working copy, some entries already given.
SMILES	Sa helicase inh	MgrA-DNA mod
Cc1noc(C)c1Cn1cnc2scc(-c3ccc(Br)cc3)c2c1=O	-4	/
COc1ccc(-c2ocnc2C(=O)O)cc1	/	-1.4
CCOC(=O)C1(C(=O)OCC)C(c2ccccc2)CC(=O)CC1c1ccccc1 (stereo unspecified)	-10	0.8
CSc1nc2nccc(NC(=O)c3cccc(C)c3)n2n1	/	-3.0
CC(=O)N(C)CCc1ccc(C)[n+]([O-])c1	7	-1.9
CCn1ncc(Br)c1C(=O)NC1CCCCC1	7	/
O=C(NCCc1ccccc1)c1cc(-c2ccccc2)c(N2CCOCC2)s1	21	4.2
CC1(C)CC(=O)C2=C(C1)NCN(Cc1ccccc1)C2	2	1.0
Cc1ccc(-n2ccnc(NCCc3ccc(S(N)(=O)=O)cc3)c2=O)cc1	-1	/
CCc1nnc2c3c(-c4ccccc4)csc3ncn12	-11	-7.0
Cc1nc(=S)[nH]c(C)c1CCC(=O)NCc1ccco1	-7	/
O=C1/C(=C/c2ccccc2)CC/C1=C\c1ccccc1	/	1.2
CC(C)(O)C#Cc1ccc(C(=O)N2CCCC2C(=O)O)s1 (stereo unspecified)	2	1.4
O=C(Nc1ccccc1)N1CCCCC1c1cccnc1 (stereo unspecified)	5	-0.5
CC1(C(=O)NC2CCCCCC2)Cc2ccccc2C(=O)N1Cc1ccco1 (stereo unspecified)	9	-0.8
Cc1cc(NC(=NC2CC2)c2ccccc2F)n(-c2ccccc2)n1	18	/
CC(C)(C)C(=O)Nc1sccc1C#N	7	/

Screening data from PubChem.
